# High-throughput results deposited in PubChem by Broad Institute.
# HIV Env fusion: blocks HIV Env-driven cell-cell fusion | HeLa-JRFL Env/CEM21 cell fusion, luciferase | inhibition, % at 12.3 µM | hit rate 1.1% among 360,000;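 active means mean replicate inhibition score of at least 50 and every replicate individually at or above 50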;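 further: 0% = plate neutral controls and 100% = maraviroc near 300 nM; one replicate is shown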
# An asterisk follows results filed as active; [ ] = another dose, or the depositor's remark. A portion of the library; rates above refer to the full screens.
entry | HIV Env fusion | mol
1 | 0[16.7 µM] | CN1CCN(C(=O)C[C@@H]2C=C[C@H](NC(=O)Nc3ccccc3F)[C@@H](CO)O2)CC1
2 | 52 | Nc1[nH]c(C(=O)c2ccccc2)c(-c2cccc3ccccc23)c1C(=O)c1ccc(Br)cc1
3 | 10[16.7 µM] | CN(C)CC(=O)N1CC2(C1)[C@@H](c1ccccc1)[C@@H](CO)N2C(=O)C1CCC1
4 | -35 | O=C(/C=C(\Nc1cccc(F)c1)c1ccccc1)c1ccccc1
5 | -4 | CC(C)CC1NC(=O)c2cc(Cl)ccc2-n2c1nc1ccccc1c2=O (stereo unspecified)
6 | 15[16.7 µM] | CN1CCN(C(=O)C[C@@H]2C[C@H]3c4cc(NC(=O)c5ccc6c(c5)OCO6)ccc4O[C@H]3[C@@H](CO)O2)CC1
7 | -1[16.7 µM] | CCCC#Cc1ccc2c(c1)O[C@H](CN(C)S(=O)(=O)c1cccc(OC)c1)[C@@H](C)CN([C@H](C)CO)S2(=O)=O
8 | -12[16.7 µM] | COc1ccc(OC(=O)N(C)C[C@@H]2OCc3ccccc3-c3ccccc3C(=O)N([C@H](C)CO)C[C@H]2C)cc1
9 | -39[16.7 µM] | Cc1ccc(S(=O)(=O)N(C)C[C@H]2OCc3cn(nn3)CCCC(=O)N([C@@H](C)CO)C[C@H]2C)cc1
10 | 11[16.7 µM] | O=C(C[C@@H]1CC[C@H]2[C@@H](COC[C@H](O)CN2C(=O)Cc2ccccc2)O1)NC1Cc2ccccc2C1
11 | -29[16.7 µM] | O=C(c1ccc2c(c1)OCO2)N1CC2(C1)[C@@H](c1ccccc1)[C@@H](CO)N2C(=O)C1CC1
12 | 19[16.7 µM] | CC(=O)N(C)C[C@H]1Oc2cc(C3=CCCCC3)ccc2S(=O)(=O)N([C@H](C)CO)C[C@H]1C
13 | -9[16.7 µM] | CC(C)NC(=O)Nc1ccc2c(c1)C(=O)N([C@@H](C)CO)C[C@@H](C)[C@@H](CN(C)C(=O)CCCN(C)C)OCCCC[C@H](C)O2
14 | 1[16.7 µM] | CC(C)NC(=O)Nc1ccc2c(c1)CC(=O)N([C@H](C)CO)C[C@@H](C)[C@H](CN(C)C)O2
15 | -5[16.7 µM] | C[C@@H]1CN([C@@H](C)CO)C(=O)Cc2cc(NC(=O)CCN3CCOCC3)ccc2O[C@@H]1CN(C)Cc1ccncc1
16 | 52[16.7 µM] | C[C@H](CO)N1C[C@H](C)[C@H](CN(C)C(=O)[C@@H](Cc2ccccc2)N(C)C)OCc2ccccc2-c2c(n(C)c3ccccc23)C1=O
17 | -12[16.7 µM] | O=C(Nc1cc(F)ccc1F)N[C@H]1CC[C@H](CCn2cc(C3CC3)nn2)O[C@H]1CO
18 | -11[16.7 µM] | C[C@@H]1CCCCO[C@H](CN(C)CC2CC2)[C@@H](C)CN([C@H](C)CO)C(=O)c2cc(NS(=O)(=O)c3ccccc3)ccc2O1
19 | -17 | COC(=O)c1ccc2nc(-c3ccc(Cl)cc3)c(Cc3ccccc3)n2c1
20 | -3[16.7 µM] | C[C@@H]1CN([C@H](C)CO)C(=O)c2cc(NC(=O)CCCN(C)C)ccc2O[C@@H](C)CCCCO[C@H]1CN(C)CC1CCCCC1
21 | 32 | COC(=O)C1=C(C)N(C)C(=NCc2ccc(C(F)(F)F)cc2)NC1c1ccc(C(F)(F)F)cc1 (stereo unspecified)
22 | 6[16.7 µM] | CO[C@@H]1CN(C)C(=O)c2cc(NC(C)=O)ccc2OC[C@H](C)N(C(=O)c2cnccn2)C[C@H]1C
23 | -11[16.7 µM] | COc1ccc(CN(C)C[C@@H]2Oc3ccc(NC(=O)NC4CCCCC4)cc3CC(=O)N([C@@H](C)CO)C[C@@H]2C)cc1
24 | 2[16.7 µM] | C[C@@H]1CN([C@@H](C)CO)C(=O)c2cc(NS(=O)(=O)c3cn(C)cn3)ccc2O[C@@H]1CN(C)S(=O)(=O)c1cn(C)cn1
25 | 15[16.7 µM] | CCCNC(=O)N[C@@H]1CC[C@H](CCn2cc(-c3cccc(F)c3)nn2)O[C@H]1CO
26 | -11[16.7 µM] | CC(C)NC(=O)Nc1cccc2c1O[C@H](CN(C)Cc1ccc(Cl)c(Cl)c1)[C@H](C)CN([C@@H](C)CO)C2=O
27 | -9[16.7 µM] | O=C(C[C@@H]1CC[C@H]2[C@@H](COC[C@H](O)CN2C(=O)Nc2cccc(Cl)c2)O1)N1CCCCC1
28 | 7[16.7 µM] | C[C@@H]1CN([C@@H](C)CO)C(=O)c2cc(N(C)C)ccc2O[C@@H](C)CCCCO[C@H]1CN(C)S(=O)(=O)c1ccccc1
29 | 21[16.7 µM] | COc1ccccc1CNC(=O)C[C@H]1C[C@@H]2c3cc(N(C)C)ccc3O[C@@H]2[C@H](CO)O1
30 | 35[16.7 µM] | C[C@H]1CN([C@@H](C)CO)S(=O)(=O)c2ccc(C#CC3CCCC3)cc2O[C@H]1CN(C)C(=O)c1cccc(F)c1
31 | 3 | Cc1cc(N2CCN(CC(C)(C)O)C[C@@H]2C)ccc1N1CCN(CC(C)(C)O)[C@@H](C)C1
32 | 5[16.7 µM] | C[C@H]1CN([C@@H](C)CO)C(=O)Cc2cc(NC(=O)Cn3cnnn3)ccc2O[C@@H]1CN(C)C(=O)Nc1ccc(F)cc1
33 | 18[16.7 µM] | Cc1cc(C(=O)Nc2ccc3c(c2)C(=O)N(C)[C@@H]2CC[C@H](CC(=O)N[C@H](C)c4ccccc4)O[C@@H]2CO3)no1
34 | -9 | CC(C)c1[nH]nc2c1C(c1ccc(F)cc1)NC2=O (stereo unspecified)
35 | 5[16.7 µM] | CO[C@H]1CC[C@H]2CCOc3ccc(C#N)cc3C(=O)N(C)C[C@@H](C)C(=O)N(C)C[C@H]1O2
36 | 3[16.7 µM] | CC=Cc1ccc2n(c1=O)C[C@H]1[C@H](CO)[C@@H](C(=O)N3CCCCC3)[C@@H]2N1Cc1ccccn1 (mixture of isomers)
37 | 22[16.7 µM] | CCC(=O)N1[C@H](C(=O)NCc2ccc(F)cc2)[C@@H](CO)[C@@H]2Cn3c(ccc(C4=CCCCC4)c3=O)[C@@H]21
38 | -16[16.7 µM] | Cc1ccc(-c2cnc3c(c2)C(=O)N([C@@H](C)CO)C[C@H](C)[C@H](CN(C)C(=O)CN(C)C)O3)cc1
39 | 15[16.7 µM] | CO[C@H]1CC[C@H]2CCN(C)C(=O)CCCN(C)C(=O)c3cccc(C#N)c3OC[C@H]1O2
40 | -13[16.7 µM] | COc1ccc(C#Cc2ccc3c(c2)O[C@H](CN(C)C(=O)CN2CCOCC2)[C@H](C)CN([C@H](C)CO)S3(=O)=O)cc1
41 | -47 | O=C(N[C@H](C(=O)N1CCC[C@H]1C(=O)NCc1ccccc1)C1CCCCC1)c1ccc(Cl)cc1Cl
42 | -39[16.7 µM] | COc1ccccc1NC(=O)N(C)C[C@@H]1OCc2ccccc2-c2ccccc2C(=O)N([C@@H](C)CO)C[C@@H]1C
43 | -34[16.7 µM] | COc1ccc(C#Cc2cccc(-c3nc(C(=O)NCCCN4CCOCC4)cc4c3[C@@H](CCO)N(S(=O)C(C)(C)C)C4)c2)cc1OC (stereo partly specified)
44 | -2[16.7 µM] | Cc1ccc(S(=O)(=O)Nc2ccc3c(c2)C(=O)N([C@H](C)CO)C[C@H](C)[C@H](CN(C)Cc2ccc(Oc4ccccc4)cc2)O3)cc1
45 | -7[16.7 µM] | C[C@@H]1CN([C@@H](C)CO)C(=O)c2c(c3ccccc3n2C)-c2ccccc2CO[C@@H]1CN(C)Cc1cccnc1
46 | 14[16.7 µM] | CN1[C@@H]2c3ccc(-c4cccnc4)c(=O)n3C[C@H]1[C@H](CO)[C@H]2C(=O)NCCc1ccccc1
47 | 14[16.7 µM] | C[C@H]1CN([C@@H](C)CO)C(=O)CCCn2cc(nn2)CO[C@H]1CN(C)CC1CCCCC1
48 | 6[16.7 µM] | CO[C@@H]1CN(C)C(=O)c2cc(NS(C)(=O)=O)ccc2OC[C@H](C)N(C(=O)C2CCOCC2)C[C@@H]1C
49 | 6[16.7 µM] | COCC(=O)N[C@H]1C[C@@H]2O[C@H](CO)CC[C@@H]2O[C@@H]1CCc1ccc(-c2ccccc2)cc1
50 | -13[16.7 µM] | O=C(C[C@H]1C=C[C@H](NC(=O)c2ccccn2)[C@H](CO)O1)NCc1cc(F)cc(F)c1

# The listing continues:
entry | HIV Env fusion | mol
51 | -8[16.7 µM] | CCCC(=O)Nc1ccc2c(c1)OC[C@@H](C)N(CC1CCOCC1)C[C@H](C)[C@H](OC)CN(C)C2=O
52 | 12[16.7 µM] | Cc1ccc(S(=O)(=O)N(C)C[C@@H]2OCCCC[C@H](C)Oc3ccc(N(C)C)cc3C(=O)N([C@H](C)CO)C[C@@H]2C)cc1
53 | 0[16.7 µM] | CCCN(C)C[C@H]1Oc2cc(C3=CCCC3)ccc2S(=O)(=O)N([C@@H](C)CO)C[C@H]1C
54 | 6[16.7 µM] | CO[C@@H]1CN(C)C(=O)c2cc(NC(C)=O)ccc2OC[C@H](C)N(S(=O)(=O)c2cn(C)cn2)C[C@H]1C
55 | 4 | N#Cc1ccc(S(=O)(=O)NCC2CCN(C(=O)C(=O)c3cc4ccccc4o3)CC2)cc1
56 | 61* | Cc1cccc(CN2CCSCCS2(=O)=O)c1
57 | -13[16.7 µM] | COc1ccc2c3c(n(C)c2c1)[C@@H](CO)N(CC1CC1)CC31CN(C(C)=O)C1
58 | 18[16.7 µM] | CC=Cc1ccc2n(c1=O)C[C@H]1[C@H](CO)[C@@H](C(=O)NCc3ccccc3Cl)N(S(C)(=O)=O)[C@@H]21 (mixture of isomers)
59 | -3[16.7 µM] | C[C@@H]1CCCCO[C@H](CN(C)Cc2ccccc2)[C@@H](C)CN([C@@H](C)CO)C(=O)c2cc(NC(=O)c3ccncc3)ccc2O1
60 | -6 | COC(=O)Cc1nnn2c1[C@H](C)[C@H](c1cccc(OC)c1OC)OCC2
61 | -31[16.7 µM] | COc1ccc2c3c([nH]c2c1)[C@H](CO)N(Cc1ccc2c(c1)OCO2)CC31CN(C(=O)Nc2c(C)noc2C)C1
62 | -3[16.7 µM] | C[C@@H]1CN([C@H](C)CO)C(=O)c2cc(N(C)C)ccc2O[C@@H](C)CCCCO[C@H]1CN(C)Cc1ccncc1
63 | -6[16.7 µM] | CC(=O)N(C)C[C@@H]1OCc2ccccc2-c2ccccc2C(=O)N([C@@H](C)CO)C[C@@H]1C
64 | -1[16.7 µM] | CO[C@H]1CN(C)C(=O)c2ccc(NC(=O)C3CCC3)cc2OC[C@H](C)N(C(=O)CN(C)C)C[C@H]1C
65 | 11[16.7 µM] | C[C@@H]1CN([C@H](C)CO)C(=O)c2cc(NC(=O)c3ccccc3)ccc2O[C@@H](C)CCCCO[C@@H]1CN(C)C(=O)c1ccncc1
66 | -8 | C[C@H]1CN(C(=O)OC(C)(C)C)CCN1c1ccc(N2CC[C@H](O)C2)c(C#N)c1
67 | -18[16.7 µM] | O=C(C1CCCC1)N1CC2(C1)[C@H](c1ccccc1)[C@@H](CO)N2Cc1cncnc1
68 | 20 | CC(C)[C@H](NC(=O)[C@@H](N)Cc1ccccc1)C(=O)N1CCC2CCN(Cc3ccccc3)CC21 (stereo partly specified)
69 | -29[16.7 µM] | COc1ccc2c3c([nH]c2c1)[C@H](CO)N(C(=O)c1cccnc1)CC31CN(C(=O)NC(C)C)C1
70 | -1[16.7 µM] | CCCNC(=O)N1C[C@H](C)[C@H](OC)CN(C)C(=O)c2cc(NS(C)(=O)=O)ccc2OC[C@H]1C
71 | -12[16.7 µM] | COC(=O)C[C@@H]1CC[C@@H]2[C@H](COC[C@H](O)CN2S(=O)(=O)c2cn(C)cn2)O1
72 | -21 | Nc1[nH]c(C(=O)c2ccccc2)c(-c2ccccc2Cl)c1C(=O)NCCc1c[nH]c2ccccc12
73 | 9 | C[C@@H]1OC(C2CCCCC2)N(C)[C@H]2C[C@H]3c4[nH]c5cccc(-c6ccccc6)c5c4CCN3C(=O)[C@@H]12 (stereo partly specified)
74 | 3[16.7 µM] | CCCNC(=O)Nc1ccc2c(c1)C(=O)N(C)C[C@@H](OC)[C@H](C)CN(Cc1ccc(-c3ccccn3)cc1)[C@H](C)CO2
75 | -19[16.7 µM] | O=C(C[C@H]1CC[C@H]2[C@@H](COC[C@H](O)CN2Cc2cccc(F)c2)O1)NCc1ccncc1
76 | -1[16.7 µM] | CCCNC(=O)Nc1ccc2c(c1)C(=O)N(C)C[C@H](OC)[C@@H](C)CN(Cc1ccccn1)[C@H](C)CO2
77 | 10[16.7 µM] | O=C(NCCc1ccccc1)[C@@H]1[C@@H](CO)[C@@H]2Cn3c(cccc3=O)[C@H]1N2Cc1ccccn1
78 | 1[16.7 µM] | CS(=O)(=O)Nc1ccc2c(c1)[C@H]1C[C@@H](CC(=O)NCc3ccccn3)O[C@H](CO)[C@H]1O2
